# HIV Env fusion = inhibitors of HIV-1 Env-driven cell-cell fusion, primary screen, HeLa-JRFL effector, CEM21 target cells, luciferase; inhibition, % at 12.3 µM; 1.1% of 360,000 active;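 active = mean replicate inhibition score of at least 50 and every replicate individually at or above 50; inconclusive = only one of the two criteria met; inactive = mean below 50 and not all replicates reaching 50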;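 note: 0% = plate neutral controls and 100% = maraviroc near 300 nM; one replicate is shown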
# Active calls of the source: *; ? = inconclusive; [ ] = another dose, or the depositor's remark. These rows are one share of the data (hit frequency here may not be typical).
SMILES,HIV Env fusion
CO[C@@H]1CC[C@H]2CCN(C)C(=O)C[C@@H](c3ccccc3)CN(C)C(=O)c3cc(C#N)ccc3OC[C@H]1O2,13[16.7 µM]
C[C@@H]1CN([C@H](C)CO)C(=O)c2c(c3ccccc3n2C)-c2ccccc2CO[C@H]1CN(C)C(=O)N[C@H](C)c1ccccc1,1[16.7 µM]
C[C@H]1CN([C@@H](C)CO)C(=O)c2cc(Br)cnc2O[C@H]1CN(C)C(=O)c1ccc(F)cc1,17[16.7 µM]
C[C@@H]1CN([C@H](C)CO)C(=O)c2cc(-c3ccc(F)cc3)cnc2O[C@H]1CN(C)C(=O)Cc1ccccn1,16[16.7 µM]
COc1ccccc1-c1ccc2c(c1)O[C@@H](CN(C)CC1CC1)[C@H](C)CN([C@@H](C)CO)S2(=O)=O,6[16.7 µM]
COC(=O)[C@]12C[C@H](CC(=O)NCCCCc3ccccc3)C(=O)N(CCC3=CCCCC3)C1=C[C@H](C(C)(C)C)O[C@@H]2C,50
Cc1ccc2nc3n(c(=O)c2c1)-c1ccc(Cl)cc1C(=O)NC3CC(C)C (configuration not stated),5
COC(=O)[C@]12C[C@H](CC(=O)NCC3CCCCC3)C(=O)N(CCC3=CCCCC3)C1=C[C@H](COCc1ccccc1)O[C@@H]2C,?
COc1cccc([C@@H](NC(=O)C(F)(F)F)[C@@H]2CCCC=C2c2ccccc2)c1,6
CCCN(C)C[C@H]1OCCCC[C@@H](C)Oc2ccc(NC(=O)NC(C)C)cc2C(=O)N([C@@H](C)CO)C[C@H]1C,8[16.7 µM]
O=C(C[C@@H]1C[C@@H]2c3cc(NC(=O)c4ccc5c(c4)OCO5)ccc3O[C@@H]2[C@H](CO)O1)NCc1cccnc1,0[16.7 µM]
Cc1noc(C)c1NC(=O)Nc1ccc2c(c1)C(=O)N([C@@H](C)CO)C[C@H](C)[C@H](CN(C)S(=O)(=O)c1ccc(Cl)cc1)OCCCC[C@@H](C)O2,-14[16.7 µM]
CC(C)(C)OC(=O)N[C@@H]1C=CC(=O)C1,8
O=C(C[C@H]1C[C@H]2c3cc(NC(=O)c4ccc5c(c4)OCO5)ccc3O[C@H]2[C@@H](CO)O1)NCc1cccnc1,-7[16.7 µM]
C[C@@H]1CN([C@H](C)CO)C(=O)c2cc(NS(=O)(=O)c3cn(C)cn3)ccc2O[C@H]1CN(C)S(=O)(=O)c1cn(C)cn1,21[16.7 µM]
COCC(=O)Nc1ccc2c(c1)[C@@H]1C[C@H](CC(=O)NCc3ccccc3F)O[C@H](CO)[C@@H]1O2,-8[16.7 µM]
C[C@@H]1CN([C@H](C)CO)C(=O)c2cc(NC(=O)CCN3CCOCC3)ccc2O[C@@H]1CN(C)Cc1ccncc1,24[16.7 µM]
CCCNC(=O)N[C@@H]1C=C[C@@H](CC(=O)NCCc2ccccc2)O[C@H]1CO,-29[16.7 µM]
O=C(C[C@H]1CC[C@@H]2NC[C@@H](O)COC[C@H]2O1)NCCc1ccncc1,-2[16.7 µM]
C[C@@H]1ON(C)[C@H]2C[C@H]3c4cc(N5CCCCC5)ccc4CCN3C[C@@H]12,14
O=C(C[C@H]1C[C@@H]2c3cc(NC(=O)NC4CCCC4)ccc3O[C@@H]2[C@@H](CO)O1)NCc1ccccc1F,-18[16.7 µM]
O=C(Nc1ccc2c(c1)[C@@H]1C[C@@H](CC(=O)N3CCOCC3)O[C@@H](CO)[C@@H]1O2)Nc1ccccc1F,-11[16.7 µM]
CCCNC(=O)C[C@@H]1CC[C@@H]2[C@H](COC[C@H](O)CN2S(=O)(=O)c2ccc(Oc3ccccc3)cc2)O1,-2[16.7 µM]
CCCN1C[C@@H](C)[C@@H](OC)CN(C)C(=O)c2cc(NS(C)(=O)=O)ccc2OC[C@@H]1C,-6[16.7 µM]
CC(=O)C1=C(C)N(CC(C)C)C(=S)NC1c1cccc(Cl)c1 (configuration not stated),18

# 5 structures from above, ordered by length of the SMILES, smallest number first.
SMILES,HIV Env fusion
C[C@@H]1ON(C)[C@H]2C[C@H]3c4cc(N5CCCCC5)ccc4CCN3C[C@@H]12,14
C[C@H]1CN([C@@H](C)CO)C(=O)c2cc(Br)cnc2O[C@H]1CN(C)C(=O)c1ccc(F)cc1,17[16.7 µM]
COCC(=O)Nc1ccc2c(c1)[C@@H]1C[C@H](CC(=O)NCc3ccccc3F)O[C@H](CO)[C@@H]1O2,-8[16.7 µM]
O=C(C[C@H]1C[C@@H]2c3cc(NC(=O)NC4CCCC4)ccc3O[C@@H]2[C@@H](CO)O1)NCc1ccccc1F,-18[16.7 µM]
COC(=O)[C@]12C[C@H](CC(=O)NCC3CCCCC3)C(=O)N(CCC3=CCCCC3)C1=C[C@H](COCc1ccccc1)O[C@@H]2C,?

# Next entries
SMILES,HIV Env fusion
CO[C@@H]1CN(C)C(=O)c2cc(NC(=O)C3CCOCC3)ccc2OC[C@H](C)N(C(C)=O)C[C@@H]1C,-2[16.7 µM]
C[C@@H]1CN([C@H](C)CO)S(=O)(=O)c2ccc(C3=CCCCC3)cc2O[C@@H]1CN(C)CC1CC1,14[16.7 µM]
O=C(Nc1cc(F)ccc1F)N[C@H]1CC[C@H](CC(=O)N2CCc3ccccc3C2)O[C@H]1CO,3[16.7 µM]
CO[C@H]1CN(C)C(=O)c2cc(C#N)ccc2OC[C@H]2O[C@H](CC[C@H]2OC)CCN(C)C(=O)[C@H]1C,-13[16.7 µM]
CC(C)NC(=O)Nc1ccc2c(c1)C(=O)N([C@@H](C)CO)C[C@@H](C)[C@H](CN(C)Cc1ccc(-c3ccccc3)cc1)O2,-6[16.7 µM]
COc1ccccc1CN(C)C[C@H]1OCc2cn(nn2)CCCC(=O)N([C@H](C)CO)C[C@H]1C,-2[16.7 µM]
CO[C@@H]1CC[C@H]2CCN(C)C(=O)C[C@H](c3ccccc3)CN(C)C(=O)c3cccc(C#N)c3OC[C@H]1O2,19[16.7 µM]
CC(C)(C)S(=O)N1Cc2cc(C(=O)O)nc(-c3cccc(-c4cc5ccccc5o4)c3)c2[C@@H]1CCO (some centres not stated),8[16.7 µM]
Cc1nn(C)cc1NC(=O)C[C@H]1CC[C@@H]2[C@H](COc3ccc(NC(=O)c4cccc(F)c4)cc3C(=O)N2C)O1,14[16.7 µM]
C=C1[C@@H](CCO)N(S(=O)C(C)(C)C)C[C@@H]1C (some centres not stated),-7
COC(=O)C[C@@H]1CC[C@@H](NS(=O)(=O)c2ccccc2F)[C@H](CO)O1,-3[16.7 µM]
C[C@@H]1CN([C@H](C)CO)S(=O)(=O)c2ccc(C#CC(C)(C)O)cc2O[C@@H]1CN(C)C(=O)C1CC1,0[16.7 µM]
CC(C)C#Cc1ccc2c(c1)O[C@@H](CN(C)C(=O)C1CCC1)[C@H](C)CN([C@H](C)CO)S2(=O)=O,19[16.7 µM]
CO[C@H]1CC[C@@H]2CCOc3c(C#N)cccc3C(=O)N(C)C[C@@H](c3ccccc3)CC(=O)N(C)C[C@H]1O2,-5[16.7 µM]
CO[C@@H]1CC[C@@H]2CCOc3c(C#N)cccc3C(=O)N(C)C[C@@H](OC)[C@H](C)C(=O)N(C)C[C@@H]1O2,11[16.7 µM]
Cc1cc(Oc2cccc3c2S(=O)(=O)N([C@H](C)c2ccccc2)C[C@@H](COCc2ccccc2)O3)cc(C)c1C,31
C[C@H]1CN([C@@H](C)CO)C(=O)c2cc(NC(=O)CCCN(C)C)ccc2O[C@H]1CN(C)Cc1ccc(Oc2ccccc2)cc1,1[16.7 µM]
O=C(C[C@@H]1CC[C@@H]2[C@H](COC[C@@H](O)CN2Cc2cccc(Cl)c2)O1)N1CCCCC1,9[16.7 µM]
Cc1[nH]nc2c1C(c1ccccc1)N(Cc1ccccc1)C2=O (configuration not stated),-20
C[C@@H]1CN([C@H](C)CO)C(=O)Cc2cc(NS(=O)(=O)c3ccccc3)ccc2O[C@@H]1CN(C)Cc1ccc(C(=O)O)cc1,11[16.7 µM]
CO[C@H]1CN(C)C(=O)c2ccc(NC(=O)c3cccc(F)c3)cc2OC[C@@H](C)N(CC2CC2)C[C@@H]1C,17[16.7 µM]
CCCN(C)C[C@H]1Oc2ncc(C#Cc3ccccc3OC)cc2C(=O)N([C@@H](C)CO)C[C@H]1C,-7[16.7 µM]
CN(C)C(=O)c1cccc(-c2cccc(-c3nc(C(=O)N4CCCCC4)cc4c3[C@H](CCO)N([S@@](=O)C(C)(C)C)C4)c2)c1,7[16.7 µM]
COC(=O)[C@]12C[C@H](CC(=O)N3CCOCC3)C(=O)N(CCC3=CCCCC3)C1=C[C@H](COCc1ccccc1)O[C@@H]2C,-4
C[C@@H]1CN([C@@H](C)CO)C(=O)c2cc(NS(C)(=O)=O)ccc2O[C@@H](C)CCCCO[C@H]1CN(C)CC1CC1,11[16.7 µM]
# (list continues)
SMILES,HIV Env fusion
Cc1ccc(S(=O)(=O)N[C@@H]2CC[C@@H](CC(=O)N3CCc4ccccc4C3)O[C@H]2CO)cc1,-8[16.7 µM]
C[C@@H]1CN([C@@H](C)CO)C(=O)Cc2cc(NC(=O)Nc3ccc(F)cc3)ccc2O[C@H]1CN(C)S(=O)(=O)c1cn(C)cn1,12[16.7 µM]
N#C[C@@H]1[C@@H](c2ccc(C#CC3CCCC3)cc2)[C@@H](CO)N1C(=O)Cc1ccccn1,-14[16.7 µM]
CCCN(C)C[C@@H]1OCCCC[C@@H](C)Oc2ccc(NS(=O)(=O)c3ccc(Cl)cc3)cc2C(=O)N([C@H](C)CO)C[C@@H]1C,-13[16.7 µM]
CN(C)c1ccc2c(c1)[C@H]1C[C@H](CC(=O)NCCc3ccccc3)O[C@@H](CO)[C@H]1O2,-26[16.7 µM]
C[C@@H]1CN([C@@H](C)CO)C(=O)c2cc(C#CCc3ccccc3)cnc2O[C@@H]1CN(C)Cc1ccc(C(=O)O)cc1,18[16.7 µM]
C/C=C/c1ccc2c(c1)O[C@H](CN(C)C(=O)C1CCC1)[C@H](C)CN([C@@H](C)CO)S2(=O)=O,10[16.7 µM]
COCC(=O)N(C)C[C@H]1Oc2cc(C#Cc3cccnc3)ccc2S(=O)(=O)N([C@@H](C)CO)C[C@@H]1C,4[16.7 µM]
Cc1noc(C)c1S(=O)(=O)N(C)C[C@H]1Oc2ccc(NS(=O)(=O)c3ccc(F)cc3)cc2CC(=O)N([C@H](C)CO)C[C@H]1C,16[16.7 µM]
C[C@@H]1CN(c2ccc(N3CCN(C(=O)OC(C)(C)C)C[C@@H]3C)cc2C#N)CCN1Cc1ccccc1,?
COCC(=O)N[C@H]1C=C[C@H](CC(=O)NCc2ccc(Cl)cc2)O[C@@H]1CO,8[16.7 µM]
CO[C@@H]1CN(C)C(=O)c2cc(NC(=O)C3CC3)ccc2OC[C@H](C)N(Cc2cncnc2)C[C@@H]1C,-1[16.7 µM]
CO[C@H]1CN(C)C(=O)c2ccc(NC(=O)c3cc(C)on3)cc2OC[C@@H](C)N(C)C[C@@H]1C,11[16.7 µM]
C[C@@H]1CN([C@H](C)CO)C(=O)CCCn2cc(nn2)CO[C@@H]1CN(C)Cc1ccc2c(c1)OCCO2,2[16.7 µM]
CO[C@@H]1CN(C)C(=O)c2cc(NS(C)(=O)=O)ccc2OC[C@H](C)N(Cc2cncnc2)C[C@H]1C,-12[16.7 µM]
CC(C)CCNC(=O)[C@@H](Cc1ccccc1)NC(=O)[C@H]1O[C@@H](n2ccc(=O)[nH]c2=O)[C@H](O)[C@@H]1O,-10
CO[C@@H]1CN(C)C(=O)c2ccc(NC(=O)c3cccnc3)cc2OC[C@@H](C)N(CC2CC2)C[C@H]1C,0[16.7 µM]
CC(C)NC(=O)N(C)C[C@@H]1OCCCC[C@H](C)Oc2ccc(NC(=O)CCC(F)(F)F)cc2C(=O)N([C@@H](C)CO)C[C@@H]1C,3[16.7 µM]
COC[C@@H](O)[C@H]1OCc2cc(OC)ccc2[C@@H]1/C=C/c1ccccc1,-10
CCCC#Cc1ccc2c(c1)O[C@H](CN(C)S(=O)(=O)c1cccc(OC)c1)[C@H](C)CN([C@@H](C)CO)S2(=O)=O,-2[16.7 µM]
COC(=O)c1cc2c(c3c4cc(OC)ccc4n(C(=O)c4ccccc4)c13)C(=O)N(Cc1ccco1)C2,19
CNC[C@@H]1Oc2c(NC(=O)NC(C)C)cccc2C(=O)N([C@@H](C)CO)C[C@@H]1C,-7[16.7 µM]
C[C@H](CO)N1C[C@H](C)[C@@H](CN(C)C(=O)Nc2ccc(F)cc2)OCc2ccccc2-c2c(n(C)c3ccccc23)C1=O,58*[16.7 µM]
C[C@@H]1CCCCO[C@@H](CN(C)CC2CC2)[C@@H](C)CN([C@H](C)CO)C(=O)c2cc(NC(=O)Cc3ccccc3)ccc2O1,-17[16.7 µM]
CO[C@H]1CN(C)C(=O)c2cc(NC(C)=O)ccc2OC[C@H](C)N(CC2CCCCC2)C[C@H]1C,0[16.7 µM]
COCCNC(=S)N(C)[C@H]1C[C@H]2c3[nH]c4ccccc4c3CCN2C(=O)[C@H]1[C@H](C)O,-44
CCCNC(=O)N1C[C@H](C)[C@H](OC)CN(C)C(=O)c2ccc(NC(=O)C3CCC3)cc2OC[C@@H]1C,12[16.7 µM]
C[C@H](CO)N1C[C@H](C)[C@@H](CN(C)C(=O)C2CC2)Oc2ncc(/C=C/c3ccccc3)cc2C1=O,-12[16.7 µM]
C[C@H](CO)N1C[C@H](C)[C@@H](CN(C)Cc2ccc(C(=O)O)cc2)Oc2ccc(NS(=O)(=O)c3ccccc3)cc2CC1=O,-12[16.7 µM]

# Shown field by field: entries from further up
C[C@@H]1CN([C@H](C)CO)C(=O)CCCn2cc(nn2)CO[C@@H]1CN(C)Cc1ccc2c(c1)OCCO2
  HIV Env fusion = 2[16.7 µM]
C[C@H](CO)N1C[C@H](C)[C@@H](CN(C)Cc2ccc(C(=O)O)cc2)Oc2ccc(NS(=O)(=O)c3ccccc3)cc2CC1=O
  HIV Env fusion = -12[16.7 µM]
CO[C@@H]1CN(C)C(=O)c2cc(NC(=O)C3CC3)ccc2OC[C@H](C)N(Cc2cncnc2)C[C@@H]1C
  HIV Env fusion = -1[16.7 µM]
COCCNC(=S)N(C)[C@H]1C[C@H]2c3[nH]c4ccccc4c3CCN2C(=O)[C@H]1[C@H](C)O
  HIV Env fusion = -44
